# Mtb betalactam = beta-lactam sensitization of Mtb H37Rv, H37Rv | inhibition, % at 25 µM | AID 434955, 2010 | M. tuberculosis H37Rv growth with meropenem, percent inhibition; hits of this screen are not shown here | 330,000 tested, 0.27% active;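 active means about 74% or more and at least 40 points above the plate without the antibiotic, then above 30% in a dose series; inconclusive means first-round hits that could not be retested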;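 further: growth measured after seven days incubation then overnight dye step; 0% = bacteria only wells and 100% = bacteria with antibiotic; twin plates without the antibiotic show which effects depend on it; some results filed as inactive read as strong as hits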
# Mtb H37Rv = M. tuberculosis H37Rv growth inhibitors, H37Rv strain (AID 1626) | inhibition, % at 10 µM, or IC50 in µM where a hit was titrated | M. tuberculosis H37Rv growth inhibition; higher % means a stronger effect | 220,000 tested, 0.95% active;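 active means confirmed in a dose series; inconclusive means inhibition above 80% but not taken into the dose series; inactive means below 80% or under 30% at every dose of the series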;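 further: bacteria incubated seven days before Alamar blue readout; 0% = bacteria only wells and 100% = bacteria with antibiotic wells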
# Arbovirus inh = antivirals against arbovirus infection, primary screen, cell-based, full library, 10K replicate subset; arbovirus infection cell-based antiviral screen; 200,000 tested, 0.37% active; inhibition, % at 10 µM;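 active means inhibition from about 30%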;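 further: bluetongue infection of BSR cells; cell survival read as ATP light after 72 h; 0% = infected wells without compound and 100% = uninfected wells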
# RecA splice inh = Mtb RecA intein splicing inhibitors, primary screen, biochemical, fluorescence, HTS; Protein RecA (Mycobacterium tuberculosis (strain ATCC 25618 / H37Rv)), P9WHJ3; cell-free RecA intein splicing; 290,000 tested, 0.75% active; inhibition, %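 (about 9 µM by stock and volumes)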; in the data active means inhibition above about 30%; inconclusive means no clear call, values can overlap the other calls;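 further: 0% = vehicle wells and 100% = reference inhibitor control wells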
# Target sequence (P9WHJ3 whole entry, looked up, canonical isoform): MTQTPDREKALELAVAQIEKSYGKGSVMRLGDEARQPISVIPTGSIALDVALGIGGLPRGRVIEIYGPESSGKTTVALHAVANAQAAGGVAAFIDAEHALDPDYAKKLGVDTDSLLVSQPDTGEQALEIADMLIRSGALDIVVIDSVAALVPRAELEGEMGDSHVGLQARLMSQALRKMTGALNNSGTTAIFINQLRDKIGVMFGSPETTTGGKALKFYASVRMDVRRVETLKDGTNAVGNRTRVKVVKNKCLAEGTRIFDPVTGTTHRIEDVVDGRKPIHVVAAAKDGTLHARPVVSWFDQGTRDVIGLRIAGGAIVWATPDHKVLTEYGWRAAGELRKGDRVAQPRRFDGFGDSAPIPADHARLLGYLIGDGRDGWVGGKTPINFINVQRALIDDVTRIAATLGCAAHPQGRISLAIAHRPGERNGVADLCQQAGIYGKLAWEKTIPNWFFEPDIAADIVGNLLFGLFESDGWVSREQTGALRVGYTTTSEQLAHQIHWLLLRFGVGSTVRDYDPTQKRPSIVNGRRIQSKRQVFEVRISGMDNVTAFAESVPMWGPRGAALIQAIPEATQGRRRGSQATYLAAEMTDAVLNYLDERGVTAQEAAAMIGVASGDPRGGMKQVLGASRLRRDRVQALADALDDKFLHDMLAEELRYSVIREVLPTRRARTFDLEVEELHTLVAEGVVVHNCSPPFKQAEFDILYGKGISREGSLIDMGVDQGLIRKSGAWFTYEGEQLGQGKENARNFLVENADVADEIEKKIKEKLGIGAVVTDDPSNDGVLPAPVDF
# YopH inh = YopH tyrosine phosphatase inhibitors, primary screen, biochemical, fluorescence Ex485/Em525. YopH tyrosine phosphatase [Yersinia enterocolitica]. 140,000 tested, 0.16% active. inhibition, %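 (about 10 µM by stock and volumes)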;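 active means inhibition of 50% or more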;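 further: controls were vehicle for no effect and minimum signal wells for full effect; inactives centre near -20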
# Arbovirus inh repeat = further read-out of Arbovirus inh, marked with its call; inhibition, %; measured here: 10K subset replicate screen; many hits read low in the repeat;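 first of two repeat runs on a subset; 0% = infected and 100% = uninfected wells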
# Numbers without * were called inactive; ? = inconclusive; nt = not tested or not shown. Only part of the results is shown; the hit share may differ from the screen's.
SMILES,Mtb betalactam,Mtb H37Rv,Arbovirus inh,RecA splice inh,YopH inh,others
CCc1ccccc1NC(=O)CSc1n[nH]c(C)c1[N+](=O)[O-],-5,1%,-1,-3.0,-15,
CC(C(=O)O)N1C(=O)/C(=C/C=C/c2ccco2)SC1=S (centres undefined),-4,-8%,28,7.1,-13,
O=C(O)c1nn(CCSc2ccccc2F)c(=O)c2ccccc12,-2,5%,nt,-0.9,nt,
c1ccc(-c2n[nH]nc2-c2ccccc2)cc1,-10,-1%,15,2.6,-25,
Cc1cc(C)n(CC(O)COc2ccccc2Br)n1 (centres undefined),-1,nt,nt,-3.1,nt,
COc1cccc2cc(C(=O)OCc3ccccc3)c(=O)oc12,6,nt,nt,-2.6,nt,
O=C(COC(=O)/C=C/c1ccc(F)cc1)Nc1ccc2[nH]c(=O)[nH]c2c1,-9,nt,nt,-0.9,nt,
CC1CCN(S(=O)(=O)c2nnc(NC(=O)COc3ccccc3F)s2)CC1,-7,nt,nt,0.1,nt,
CC1CCN(S(=O)(=O)c2ccc(NC(=O)C3CSC4(C)CCC(=O)N34)cc2)CC1 (centres undefined),-6,nt,nt,3.0,nt,
COc1ccc2cc(C(=O)N3CCc4ccccc43)[nH]c2c1,4,nt,nt,1.2,nt,

# Sorted by count of non-hydrogen atoms (ascending): part of the list above
SMILES,Mtb betalactam,Mtb H37Rv,Arbovirus inh,RecA splice inh,YopH inh,others
CC(C(=O)O)N1C(=O)/C(=C/C=C/c2ccco2)SC1=S (centres undefined),-4,-8%,28,7.1,-13,
CCc1ccccc1NC(=O)CSc1n[nH]c(C)c1[N+](=O)[O-],-5,1%,-1,-3.0,-15,
O=C(O)c1nn(CCSc2ccccc2F)c(=O)c2ccccc12,-2,5%,nt,-0.9,nt,
CC1CCN(S(=O)(=O)c2ccc(NC(=O)C3CSC4(C)CCC(=O)N34)cc2)CC1 (centres undefined),-6,nt,nt,3.0,nt,

# Remaining list, next part:
SMILES,Mtb betalactam,Mtb H37Rv,Arbovirus inh,RecA splice inh,YopH inh,others
O=C(CSc1cn[nH]n1)Nc1ccccc1C(F)(F)F,8,nt,nt,0.5,nt,
CN=C1C=C/C(=N/N=c2\ccn(O)cc2C)C=C1C,11,-1%,nt,5.7,nt,
COc1ccc(C(=O)NCc2c(CC(C)C)oc(C)c2C(=O)O)cc1,-9,-2%,0,-4.1,-19,
COc1ccc(N2CCC(CNC(=S)Nc3cccc(C)c3)C2)cc1 (centres undefined),69,74%,-3,10,-10,
C=CCc1cccc(C=Nc2cccn3cc(-c4ccccc4)nc23)c1O,4,7%,2,-21,nt,
CN(C)c1ccc(C(=O)NC2(N3CCC3=O)CCCC2)cc1,-7,-1%,1,-4.2,nt,
CCOc1ccc(CC(=O)C2C(=O)CCCC2=O)cc1OCC,-4,-14%,4,-1.0,-23,
O=C(CN(C1CCCCC1)S(=O)(=O)c1ccc(F)cc1)Nc1ccc2c(c1)OCO2,7,0%,-8,4.2,-10,
O=C(CC(c1ccc(F)cc1)c1ccco1)N1CCCC1 (centres undefined),-1,2%,2,3.4,-21,
N#Cc1cccc(OCC(=O)NC(=O)NCc2ccccc2)c1,-10,7%,6,-1.3,nt,
COC(=O)c1c(C)oc(C)c1S(=O)(=O)Nc1ccccc1,1,-7%,nt,-0.7,nt,
O=C(NC1CCCCC1)C(c1ccc(F)cc1)N(CCc1ccccc1)C(=O)CN1C(=O)c2ccccc2S1(=O)=O (centres undefined),21,13%,-3,-3.7,-38,
CC(=O)c1ccc(C(=O)N(CCN(C)C)c2nc3c(Cl)cccc3s2)cc1,2,1%,-7,7.4,nt,
O=C(COC(=O)c1cccnc1)Nc1ccc(F)cc1,4,-7%,14,2.7,-24,
Nn1c(SCc2cccc(Cl)c2)nnc1-c1ccncc1,-6,1%,nt,1.4,nt,
Nn1cnnc1N/N=C/c1cccc(Cl)c1Cl,5,nt,nt,-1.3,nt,
COc1cccc(NC(=O)CCCNC(=O)Cn2cnc3sc(C)c(C)c3c2=O)c1,0,nt,nt,3.4,nt,
COc1cc(CNc2ccc3[nH]c(=O)[nH]c3c2)cc(Cl)c1OCC(=O)NC(C)(C)C,62,9%,-1,0.5,-10,
CC(Sc1nnc(CNC(=O)c2ccccc2F)n1C)C(=O)Nc1nccs1 (centres undefined),-3,nt,nt,0.2,nt,
O=C(O)c1ccc(COc2ccc([N+](=O)[O-])cc2)o1,2,nt,nt,-0.3,nt,
CN1C/C(=C/c2ccsc2)C(=O)/C(=C/c2ccsc2)C1,83,4%,-26,-5.1,-27,
CCCCNC(=O)C1(O)c2ccccc2NC(=O)N1c1ccc(Cl)cc1 (centres undefined),7,nt,nt,-0.4,nt,
O=C(CSc1nc(-c2ccc(F)cc2)cs1)N1CCN(C(=O)c2ccco2)CC1,32,-10%,4,7.4,-34,
O=C(c1ccc2c(c1)OCO2)N1CCN(c2ccc(Cl)cc2)CC1,-4,-5%,6,-1.2,-28,
Cc1ccc(S(=O)(=O)N2CCN(C(=O)C3CCN(C(=O)c4ccccc4C)CC3)CC2)cc1C,-1,7%,10,-1.4,nt,
C/C(=N\NC(=O)C(O)(c1ccccc1)c1ccccc1)c1ccc(C)o1,5,8%,3,1.0,-28,
COc1cc(/C=N/Nc2cc(C)nc(N)n2)ccc1O,4,nt,nt,-1.5,nt,
Cc1cc(Br)ccc1OCC(=O)NNC(=O)c1cnccn1,98,?,-15,-1.9,-41,
COC(=O)c1ccc2nc(NC(=O)C3CCCCC3)sc2c1,6,-4%,8,-1.8,nt,
C=C(C)C(=O)Nc1cccc(C2=NOC3(C2)C[C@@H](C(N)=O)N(C(=O)C2(C)CC2)C3)c1 (some centres undefined),-3,13%,nt,-0.1,nt,
COc1ccccc1OCCC(=O)OCCN1C(=O)c2ccccc2C1=O,3,9%,9,-0.7,-36,
Clc1ccc(N2CCNCC2)nn1,-9,-3%,10,-6.8,nt,
Cc1ccccc1NC(=S)N1CCN(c2ccccc2)CC1,-2,nt,nt,-2.8,nt,
Cc1ccc(C)c(C(C)NC(=O)c2ccccc2Br)c1 (centres undefined),1,68%,6,1.2,-44,
CC(=O)c1sc(NC(=O)c2ccc(Br)o2)nc1C,-3,nt,nt,0.1,nt,
COc1ccc2oc(C(=O)OCC(=O)N3CCC(C)CC3)c(C)c2c1,?,nt,nt,1.8,nt,
CCN(/C=N/S(=O)(=O)c1ccc(Cl)cc1)CC,6,1%,7,-9.0,nt,
Cc1cc(NC(=O)c2cccc(S(=O)(=O)N3CCCCC3)c2)no1,4,nt,nt,1.0,nt,
Cc1ccc(S(=O)(=O)N2C(=O)C(c3ccccc3)SC2=Nc2ccccc2)cc1 (centres undefined),-3,4%,2,-0.7,3,
COc1ccc(-c2nnc(SCC(=O)c3cc(C)n(Cc4cccs4)c3C)o2)cc1,-12,5%,4,-0.2,-18,
CC1CN(Cc2ccccc2)c2ccccc2NC1=S (centres undefined),-2,7%,1,13,-30,
Cc1ccc2nc(-c3ccccc3)cc(C(=O)N(C)CC(=O)Nc3ccccc3Br)c2c1,31,nt,nt,1.6,nt,
O=C(O)C(Cc1ccc(Cl)cc1)NS(=O)(=O)c1ccc(Cl)cc1 (centres undefined),-12,nt,nt,0.2,nt,
c1csc(-c2nn3c(Cn4nnc5ccccc54)nnc3s2)c1,-12,-4%,11,0.8,-29,
O=c1c(=Nc2ccccc2O)c(=O)c2ccccc12,95,79%,-27,-0.5,nt,
COc1ccc(CNC(=O)C(C)N(Cc2ccccc2OC)C(=O)c2snc(C(N)=O)c2N)cc1 (centres undefined),-4,nt,nt,-16,nt,
CCOCCCNC(=O)c1ccc2c(c1)N(CC)C(=O)c1ccccc1S2=O (centres undefined),0,nt,nt,-0.6,nt,
CCCCNC(=O)N1CCCC(C(=O)c2cc(C)c(OC)c(C)c2)C1 (centres undefined),5,nt,nt,2.2,nt,
CN(c1ccccc1C(=O)NCc1ccco1)S(C)(=O)=O,2,-15%,7,4.3,-33,
CCCCNC(=O)CSc1nnc(-c2ccc(S(=O)(=O)N3CCCC3)cc2)n1C,-6,-6%,-3,-0.9,-30,
# Next section
SMILES,Mtb betalactam,Mtb H37Rv,Arbovirus inh,RecA splice inh,YopH inh,others
CCN1CCn2c3c(c4cc(C)ccc42)CCCC31 (centres undefined),48,3%,-17,-0.5,-22,Arbovirus inh repeat=2
O=c1cc(CO)oc(CN2CCCC2)c1O,9,-1%,14,-3.4,-16,
CN(C)Cc1c(C(=O)Nc2ccccc2)[nH]c2ccccc12,-3,nt,nt,0.5,nt,
Cc1cc(Nc2ccc(F)cc2C)n2ncnc2n1,-1,-2%,0,0.8,16,Arbovirus inh repeat=7
O=c1[nH]c(=O)n(-c2ccccc2F)c(O)c1C=NCCC1=CCCCC1,-2,-1%,-20,4.3,nt,
CN1CCC(=NNC(=O)C(=O)Nc2cccc(Br)c2)CC1,5,?,-3,-3.2,nt,
CCCCCC(=O)Nc1ccc(S(=O)(=O)Nc2nccnc2OC)cc1,-4,-3%,-1,0.7,-56,
CCCN1CC(=O)N2C(c3ccccc3)c3[nH]c4ccccc4c3C[C@H]2C1=O (some centres undefined),-1,nt,nt,6.1,nt,
CCOCCCNC(=O)CN1C(=O)NC(Cc2c[nH]c3ccccc23)C1=O (centres undefined),1,nt,nt,-0.4,nt,
CCOc1ccc2c(c1)[N+](C)(C)C(C)(C)C=C2C,-4,1%,1,nt,nt,
CC1Cc2ccccc2N1C(=O)c1ccc2c(c1)OCO2 (centres undefined),0,nt,nt,10,nt,
Cc1cc(C)n(CCCNC(=O)Cn2nnnc2CN2C[C@@H](C)O[C@@H](C)C2)n1,-12,nt,nt,-3.4,nt,
NC(=O)c1nn(-c2ccccc2)nc1NC(=O)CN1CCCCC1,3,4%,1,-0.4,-15,
COc1cccc(C2C(C(=O)c3ccc(C)o3)=C(O)C(=O)N2CCN2CCOCC2)c1 (centres undefined),-1,nt,nt,2.5,nt,
CCN1c2ccccc2NC2N=C(OC)C(c3ccccc3)C21 (centres undefined),-2,-1%,-13,15,-31,Arbovirus inh repeat=-36
N/C(COc1ncn(-c2ccccc2)n1)=N\S(=O)(=O)c1ccccc1,5,-5%,1,-0.7,nt,
COc1ccc(OC)c(NC(=O)c2ccc(NS(C)(=O)=O)cc2)c1,-3,-14%,2,3.4,-19,
COc1ccc(NC(=O)c2cn(C)c(=O)c3cc(OC)c(OC)cc23)cc1OC,-3,nt,nt,0.7,nt,
O=C(NNS(=O)(=O)c1ccccc1C(F)(F)F)c1cccc(S(=O)(=O)Nc2ccccc2Cl)c1,2,6%,-5,4.3,-37,
CC1CN(CC(O)COc2ccccc2C(C)(C)C)CC(C)O1 (centres undefined),1,11%,4,nt,-8,

# Compounds from the list above containing an aryl thioether with sulfur outside any ring:
SMILES,Mtb betalactam,Mtb H37Rv,Arbovirus inh,RecA splice inh,YopH inh,others
CCc1ccccc1NC(=O)CSc1n[nH]c(C)c1[N+](=O)[O-],-5,1%,-1,-3.0,-15,
O=C(O)c1nn(CCSc2ccccc2F)c(=O)c2ccccc12,-2,5%,nt,-0.9,nt,
O=C(CSc1cn[nH]n1)Nc1ccccc1C(F)(F)F,8,nt,nt,0.5,nt,
Nn1c(SCc2cccc(Cl)c2)nnc1-c1ccncc1,-6,1%,nt,1.4,nt,
CC(Sc1nnc(CNC(=O)c2ccccc2F)n1C)C(=O)Nc1nccs1 (centres undefined),-3,nt,nt,0.2,nt,
O=C(CSc1nc(-c2ccc(F)cc2)cs1)N1CCN(C(=O)c2ccco2)CC1,32,-10%,4,7.4,-34,
COc1ccc(-c2nnc(SCC(=O)c3cc(C)n(Cc4cccs4)c3C)o2)cc1,-12,5%,4,-0.2,-18,
CCCCNC(=O)CSc1nnc(-c2ccc(S(=O)(=O)N3CCCC3)cc2)n1C,-6,-6%,-3,-0.9,-30,

# (list continues)
SMILES,Mtb betalactam,Mtb H37Rv,Arbovirus inh,RecA splice inh,YopH inh,others
N#C/C(Cn1c[n+](NC(=O)Nc2ccccc2)cn1)=N/O,2,-1%,1,-2.4,-12,
O=C(CN1CCN(c2ccc(O)cc2)CC1)NC1CCCc2ccccc21 (centres undefined),-2,0%,-11,-4.8,-35,
CCC(C)NC(=O)c1ccc(N2CCC3(CC2)OCCO3)c([N+](=O)[O-])c1 (centres undefined),-1,-2%,-5,-0.4,-14,
COc1ccc(-c2csc(NC(=S)NC(=O)/C=C/c3ccc(C(C)C)cc3)n2)cc1OC,90,nt,nt,1.1,nt,
Cn1c(SCC(=O)Nc2sccc2C(N)=O)nnc1-c1ccncc1,-4,-1%,nt,-1.2,nt,
Cn1c(CNC(=O)OC(C)(C)C)nnc1SCC(=O)N1CCOCC1,-7,-5%,nt,3.2,nt,
